Sfp inh: qHTS Assay for Inhibitors of Bacillus subtilis Sfp phosphopantetheinyl transferase (PPTase) | Biochemical Sfp PPTase activity, qHTS | 310,000 tested, 3.5% active | Potency, µM, without a hit: max response, negative = inhibition, usual class: inhibitors; active = well fitted inhibition curve with a large enough effect; inconclusive = small, poorly fitted or top-dose-only effect, or another doubt; inactive = no such curve, though single readings can be large or run the other way;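 also: the enzyme is Sfp with the accession as filed and its product quenches rhodamine fluorescence; potency is read from the fitted curve at half-maximal effect; 0% = enzyme reaction without inhibitor and -100% = no enzyme wells; top concentration of the series not given in the record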
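Fluorescence-quenching assay with 15 nM Sfp, 5 uM rhodamine-CoA and 12.5 uM BHQ-2-labelled ybbR peptide in pH 7.6 Hepes/MgCl2 buffer. Enzyme was pre-incubated with compound for 15 min at room temperature. Rate was taken from the 30-min fluorescence change (525/598 nm).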
ClpP mod: qHTS Assay for Activators of ClpP; 340,000 tested, 1.9% active; Potency, µM (highest dose often 57.5 µM), for inactives: at the top dose activity change, negative = active; purified B. subtilis ClpP, FRET peptide cleavage, 20 min; ATP-dependent Clp protease proteolytic subunit (Bacillus subtilis (strain 168)), P80244; active = well fitted falling curve with a large enough effect; inconclusive = small, poorly fitted or top-dose-only effect; inactive = no such curve, though single readings can be large or run the other way; also: potency is read from the fitted curve at half-maximal effect; the source files actives as falling curves though it sought activators and does not explain the sign; nearly all actives have a fitted effect of over 65% in size; many hits overshoot -100%
Target sequence (P80244 whole entry, looked up): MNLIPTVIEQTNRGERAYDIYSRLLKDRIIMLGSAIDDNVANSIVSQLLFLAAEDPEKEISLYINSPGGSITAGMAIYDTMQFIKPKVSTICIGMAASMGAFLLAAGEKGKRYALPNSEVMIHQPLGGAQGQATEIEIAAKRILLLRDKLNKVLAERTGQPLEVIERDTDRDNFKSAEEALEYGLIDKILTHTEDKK
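FRET quenching reversal measured ClpP activation: 10 microg/mL B. subtilis ClpP at pH 8 with the FRET-FV decapeptide, read at 430 nm after 320 nm excitation. The 20-min minus 0-min signal was scaled between DMSO/no-enzyme wells and ADEP (5.8 microM final).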
Menin-MLL FL inh: qHTS Assay for Inhibitors Targeting the Menin-MLL Interaction in MLL Related Leukemias: Competition With Fluorescein Labeled MLL-derived Peptide | Fluorescence polarization, fluorescein-MLL peptide displacement from menin | FP activity change, % at 61.4 µM | 290,000 tested, under 10 active | AID 1766, 2009; inconclusive = falling polarisation curve, or a change in total fluorescence; inactive = total fluorescence flat and polarisation flat or rising; no compound was filed as active; the % refers to the polarisation; negative = inhibition;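 also: % of control where 0% means no effect; inhibitors lower the polarisation; unlabelled MLL peptide was the positive control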
TRPV1 PAM: HTS Assay for Compounds that Act as Potentiators of the Vanilloid Receptor 1. Transient receptor potential cation channel subfamily V member 1 (Homo sapiens), Q8NER1. TRPV1-expressing cells, Fluo-8 calcium influx, capsaicin EC20 potentiation; host cell line not named in the record; control for the full effect not named in the record. potentiation, % at 8.33 µM. 320,000 tested, 0.02% active. AID 540277, 2011; active means potentiation above 80%; inconclusive means 30% to 80%; inactive means below 30%; also: 0% is about no effect
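Cells expressing TRPV1 were dye-loaded with Fluo-8 and read kinetically: 10 s baseline, 3 min after compound (agonist portion), then 2 min after EC20 capsaicin (allosteric enhancer portion). Calcium-bound dye fluorescence at 480/520 nm.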
TRPML1 ag: qHTS for Agonists of the Human Mucolipin Transient Receptor Potential 1 (TRPML1). Mucolipin-1 (Homo sapiens), Q9GZU1. TRPML1-expressing cells, Ca2+ dye fluorescence, FDSS; host cell line not named in the record; reference of the full effect not given here. activation, % (test concentration not listed). 410,000 tested, 0.12% active; in the data active = activation above about 50%; inconclusive = about 30% to 50%; inactive = below about 30%; also: 0% is about no effect; the text of the record puts the active cut at 80%
Target sequence (Q9GZU1 whole entry, looked up): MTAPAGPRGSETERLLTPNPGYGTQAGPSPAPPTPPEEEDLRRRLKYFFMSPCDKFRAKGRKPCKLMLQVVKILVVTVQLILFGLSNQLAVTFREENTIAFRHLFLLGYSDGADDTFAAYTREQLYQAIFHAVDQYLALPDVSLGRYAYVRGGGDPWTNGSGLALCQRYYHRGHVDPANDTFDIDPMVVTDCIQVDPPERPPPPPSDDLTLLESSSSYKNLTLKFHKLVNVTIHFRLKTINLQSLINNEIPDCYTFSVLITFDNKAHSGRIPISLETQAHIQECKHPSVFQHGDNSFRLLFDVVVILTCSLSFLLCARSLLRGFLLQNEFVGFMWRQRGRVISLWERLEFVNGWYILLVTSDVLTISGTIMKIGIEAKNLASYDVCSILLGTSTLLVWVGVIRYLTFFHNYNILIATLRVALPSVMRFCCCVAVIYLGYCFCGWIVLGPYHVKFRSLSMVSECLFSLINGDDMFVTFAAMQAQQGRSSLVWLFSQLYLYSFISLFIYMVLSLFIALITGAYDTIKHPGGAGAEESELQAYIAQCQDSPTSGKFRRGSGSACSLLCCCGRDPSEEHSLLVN
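Kinetic FDSS Ca2+ read in Tet-induced TRPML1-DL cells (ABD Ca8 dye plus quencher, 45-90 min RT loading): baseline, then compound, then 110 s agonist window; EC80 agonist 54-4 at 4uM final added afterwards for a 110 s antagonist window.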
PINK1 expr mod: A Quantitative High throughput Screen to Identify Chemical Modulators of PINK1 Expression. PINK1 immunofluorescence, high-content cytometry, 24 h. 410,000 tested, 0.2% active. Potency, µM (doses to about 76.6 µM), inactives show top-dose activation (PINK1 increase), most hits filed as activators; active = well fitted activation curve with a large enough effect; inconclusive = small, poorly fitted or top-dose-only effect; inactive = flat fitted curve, though single readings scatter; cell line not stated here;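 also: potency is read from the fitted curve at half-maximal effect; % of control where 0% means no effect; nearly all actives have a fitted effect of over 65% in size; a mitochondrial uncoupler was the plate control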
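Readout is PINK1 immunofluorescence, quantified alongside mitochondrial, cell and nuclear markers by laser-scanning microplate cytometry. Cells from a stable line were exposed to compound titrations (5 concentrations) for 24 hours, with CCCP controls.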
TRPML1 inh: qHTS for Inhibitors of the Human Mucolipin Transient Receptor Potential 1 (TRPML1); Mucolipin-1 (Homo sapiens), Q9GZU1; AID 624415, 2012; activity change, negative = inhibition, % (test concentration not listed); 390,000 tested, 0.02% active; TRPML1-inducible cells, Ca2+ dye fluorescence, FDSS; hits give low values; inhibition of EC80 agonist-evoked calcium signal; in the data active means activity change below about -50%; inconclusive means about -30% to -50%; inactive means above about -30%;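 also: stimulus is agonist 54-4 at its EC80 concentration; % is scaled to controls: 0 for no effect and ±100 for the full control effect; compound concentration not given in the record; the text of the record puts the active cut at -80%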
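Calcium fluorescence in TRPML1-DL cells induced overnight with Tet: a 110 s read after compound pin addition, then a 110 s antagonist read after challenge with 54-4 at 4 uM final (EC80).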
An asterisk follows results filed as active; ? = inconclusive; · = not tested or not shown; & = joins results of further samples; [ ] = another dose, or the depositor's remark.

Each structure is followed by: Sfp inh, ClpP mod, Menin-MLL FL inh, TRPV1 PAM, TRPML1 ag, PINK1 expr mod, TRPML1 inh
1. CCc1ccc(-n2c(-c3ccccc3)c(C)n3c4c(=O)n(C)c(=O)n(C)c4nc23)cc1
  ·, -2.8%, ·, ·, 1.8, 0.7%, -4.3
2. CCn1c(C)nc2cc(C(=O)NN=C(C)c3ccc(C#N)cc3)ccc21
  ·, ·, ·, ·, 1.0, 6.4%, -1.4
3. CCN(C(=O)c1ccnc(C(C)(C)C)c1)c1ccccc1
  4.6%, -1.5%, 0.1, 5.4, -1.0, 2.0%[38.3 µM], -0.1
4. Cc1ccc2nc(-c3ccncc3)cc(C(=O)Nc3ccc4c(c3)OCCO4)c2c1
  -13.8%, ·, -1.6, ?, -0.4, 3.9%, 17.8
5. COc1ccccc1Nc1ncnc2c1oc1ccccc12
  ?, 132.5%, 1.6, -6.3, 1.1, 5.8%, -0.1
6. O=C(Nc1ccc(N2CCN(C(=O)c3ccco3)CC2)cc1)c1cccc(F)c1
  -0.3%, 1.2%, 12.0, -17.2, 0.3, 3.4%, 10.8
7. NC(=O)c1ccccc1NC(=O)C1CCCO1 (configuration not stated)
  2.5%, ·, -2.2, ?, -0.6, -0.9%, 5.3
8. CCOC(=O)C(C)n1nc(C)c2sc3ccccc3c2c1=O (configuration not stated)
  -24.6%, ?, 5.6, 8.4, -0.3, 11.8%[38.3 µM], 0.7
9. COc1ccc(C(=O)C[n+]2cccc(Br)c2)cc1
  16.8%, -3.9%&-1.5%, -0.7, -2.9, -0.4&-0.1, -0.5%, -5.2
10. CCN(C(=O)CSc1nnc(-c2ccc(Cl)cc2)o1)c1ccccc1
  ·, 0.1%, ·, ·, 2.8, 3.6%, -18.0
11. COc1cccc(N2CCN(C(=O)c3cc4c(=O)n(Cc5cccs5)ccc4nc3C)CC2)c1
  ·, -16.1%, ·, ·, 0.1, 1.0%, -22.2
12. COc1cc(OC)c(NC(=O)Nc2ccc3c(c2)N(C)C(=O)c2ccccc2S3)cc1Cl
  ·, -0.5%, ·, ·, 0.4, -0.5%, 5.2
13. COCCCNC(=O)Nc1ccc2c(c1)N(C)C(=O)CS2
  14.6%, 0.1%, 3.1, 6.2, 0.7, -3.3%, -11.3
14. O=C(c1ccc(Cl)cc1)c1cc(-c2ccccn2)c(N2CCOCC2)s1
  -11.6%, -0.9%, 23.6, -4.3, 0.9, 0.2%, 17.7
15. O=C(Cn1cnc2ccccc2c1=O)Nc1ccc2c(c1)OCO2
  2.4%, 1.2%, 11.1, -13.3, -0.3, -0.3%, -15.3

Next section:
Each structure is followed by: Sfp inh, ClpP mod, Menin-MLL FL inh, TRPV1 PAM, TRPML1 ag, PINK1 expr mod, TRPML1 inh
16. CCOc1nc(-c2ccccc2)c2cc(C)ccc2n1
  -2.1%, 4.3%, 0.3, 2.7, 0.6, 4.4%, -0.1
17. COc1cc(C2c3cc4c(cc3C(OC3OC5COC(c6cccs6)OC5C(O)C3O)C3COC(=O)C23)OCO4)cc(OC)c1O (configuration not stated)
  6.6%, -0.3%, 3.0, 3.6, -0.3, 0.4%, -0.9
18. CCOc1ccc(-c2ccc(NS(=O)(=O)c3cc([N+](=O)[O-])c(C)c([N+](=O)[O-])c3)cc2)nn1
  14.8%, -0.3%, ·, 18.7, -0.3, 1.3%, 3.0
19. Cc1c(C(=O)NCc2ccc3c(c2)OCO3)sc(=O)n1Cc1ccc(-c2ccccc2)cc1
  ·, -2.3%, ·, ·, 0.2, 0.2%, ·
20. Cc1sc2nc(CSCC(=O)Nc3ccc(C(F)(F)F)cc3)[nH]c(=O)c2c1C
  ·, -7.9%, ·, -6.9, 0.3, 1.5%, -10.4
21. COc1cc(Nc2nc3c(N)cc(C(F)(F)F)cc3nc2-c2ccccc2)cc(OC)c1OC
  ·, -0.9%, ·, ·, 2.2, 2.5%, 11.5
22. CC(C)NC(=O)c1ccc(Cl)cc1Cl
  26.8%, ·, 3.6, -15.4, 0.6, -2.3%, -7.8
23. FC(F)(F)c1cc(-c2cccs2)nc2cc(-c3ccccc3)nn12
  3.3%, 33.7%, 1.4, -8.3, -0.6, 7.2%, -2.8
24. Cc1ccc(C(=O)N/C(=C\c2cccs2)C(=O)NCc2cccnc2)cc1
  -4.5%, 0.7%, -5.0, 4.0, -1.3, 3.3%, 1.9
25. Cc1nnc(NC(=O)CSc2nnc(CC(=O)Nc3ccccc3Cl)n2C)s1
  4.5%, ·, -21.0, ?, 0.6, 0.4%, -3.6
26. COC(=O)c1ccc(C(=O)OC)c(NC(=O)N2c3ccccc3Sc3ccccc32)c1
  -4.2%, -14.8%, -14.0, 1.1, 1.1, 17.6%[38.3 µM], 6.8
27. COc1ccccc1C1C=C(c2ccc(C)cc2)Nc2nnnn21 (configuration not stated)
  -10.6%, -15.2%, 0.3, 2.1, 2.3, -0.6%, 2.5
28. c1ccc(-n2ncc3c(NCCN4CCOCC4)ncnc32)cc1
  11.0%, ?, 4.9, 8.9, 1.5, -1.1%, -4.8
29. COc1ccc(NC(=O)CCc2nnc3ccc(N4CCC(C)CC4)nn23)cc1OC
  8.0%, 1.3%, ·, 12.6, 1.4, 1.4%, -2.4
30. CN(C)S(=O)(=O)c1ccc(C(=O)Nc2ccccc2SCCC#N)cc1
  14.1µM*, 0.0%, -1.3, -31.4, 0.4, 0.6%, 22.9

Carrying on.
Each structure is followed by: Sfp inh, ClpP mod, Menin-MLL FL inh, TRPV1 PAM, TRPML1 ag, PINK1 expr mod, TRPML1 inh
31. CCn1c(SCC(=O)c2c[nH]c3ccccc23)nc2cc(S(=O)(=O)N3CCOCC3)ccc21
  -6.3%, 28.2µM*, 4.1, 1.0, 0.8, 3.6%, -3.3
32. Cc1ccc(C2C(C(=O)c3cccs3)=C(O)C(=O)N2c2cccc(C)n2)cc1 (configuration not stated)
  20.4%, -1.7%, 1.0, 25.5, -0.3, -1.9%, 22.7
33. COc1cc(OC)c(NC(=O)c2cnn(-c3cccc(Cl)c3C)c2C2CCN(C(=O)OC(C)(C)C)CC2)cc1Cl
  ·, -2.3%, ·, ·, 0.4, -1.3%, 11.0
34. Cc1ccc(S(=O)(=O)N2CCSC2c2ccco2)cc1 (configuration not stated)
  -2.8%, -0.6%, 3.5, 17.5, 2.3, 13.2%, 37.6
35. O=C(c1c[nH]c2ccccc2c1=O)N1CCCCCC1
  15.9%, ·, 1.1, 1.0, -0.4, 2.3%, 2.7
36. O=C1CCCCC1CCc1ccncc1 (configuration not stated)
  ·, 6.2%, ·, ·, -0.3, -1.1%, 13.3
37. Oc1ccccc1C(=S)N1CCN(C(=S)c2ccccc2O)CC1
  28.2µM*, -2.3%, -17.7, -4.5, 1.5, 0.7%, 29.6
38. Cc1ccccc1OCC(=O)Nc1cc(C)c(O)c(-c2nc3ccccc3o2)c1
  ·, 2.2%, ·, ·, 0.4, 1.9%, ·
39. O=C(c1ccccc1)N(Cc1ccc(F)cc1)Cc1nc2ccccc2c(=O)[nH]1
  6.5%, 1.9%, 2.0, 11.9, 0.2, 2.8%[38.3 µM], -7.8
40. CC(C)NC(=O)Cn1c(=O)nc(-c2ccccc2)c2ccccc21
  ·, -2.8%, ·, ·, 1.9, -0.7%, 38.1
41. COC(=O)c1ccccc1NC(=O)COC(C)=O
  11.7%, -12.3%, 3.6, 14.2, -0.1, -1.5%, -18.2
42. CCOC(=O)CN1NC2(CCC(C(C)(C)C)CC2)NC1=S (configuration not stated)
  22.4µM*, -1.8%, -0.2, -18.4, 0.0, -0.1%, 20.7
43. Cc1cccc(OCCCn2c(=O)oc3ccc(C)cc32)c1
  -7.4%, -1.4%, 1.3, -2.3, 2.6, -0.1%, 3.5
44. O/N=C1\CC/C(=N\O)c2nn(-c3ccc(Cl)cc3Cl)nc21
  -4.8%, 1.0%, 0.4, 14.1, -0.7, 0.2%[38.3 µM], 18.3
45. Cc1cccc(C)c1NC(=O)CN(C)C(=O)Cc1cccc(C(F)(F)F)c1
  12.1%, -1.8%, 4.2, 2.0, -1.2, 12.2%, -5.7

Later entries.
Each structure is followed by: Sfp inh, ClpP mod, Menin-MLL FL inh, TRPV1 PAM, TRPML1 ag, PINK1 expr mod, TRPML1 inh
46. CCN1CCN(c2ncnc3sc(C(=O)Nc4ccccc4F)c(C)c23)CC1
  18.4%, -2.0%, -0.8, 7.0, -0.5, -1.5%, -6.2
47. COc1cc(OC)cc(C(=O)NCc2ccc(-n3cccc3)cc2)c1
  21.2%, -7.0%, -4.6, -5.8, 2.3, 11.6%, 29.6
48. COc1ccc2c(c1)c1c(c(=O)n(-c3ccccc3)c(=O)n1CC(=O)Nc1ccc(F)cc1)n2C
  ·, 4.4%, ·, ·, 1.3, 6.1%, -3.1
49. CC(=O)Nc1ccc(S(=O)(=O)N2CCN(c3cc4c(cc3[N+](=O)[O-])n(C)c(=O)n4C)CC2)cc1
  14.3%, 0.3%, 0.7, -9.4, -0.5, 4.8%[38.3 µM], 2.2
50. COc1ccccc1CNC(=O)CN(Cc1ccc(Cl)cc1)S(C)(=O)=O
  10.0%, ·, -2.5, 7.9, -0.1, -0.7%, 5.2
51. Cc1ccc(NC(=O)c2ccc(NC(=O)N3CCSc4ncccc43)cc2)c(Cl)c1
  ·, 28.2µM*, ·, ·, 1.5, 0.5%, -10.9
52. COc1ccc(C(=O)N2CCN(S(=O)(=O)c3ccc(C)cc3C)CC2)cc1S(=O)(=O)N1CCOCC1
  ·, 1.1%, ·, ·, -1.1, -0.8%, 9.0
53. Cc1ccc(NC(=O)C(Cc2ccccc2)N2C(=O)C3C4CCC(C4)C3C2=O)cc1Cl (configuration not stated)
  6.0%, -5.6%, 4.1, -9.6, 3.2, 1.1%, 19.7
54. CCOC(=O)c1cn(Cc2ccc(C)cc2)c2cc(F)ccc2c1=O
  6.7%, -2.3%, 7.9, -3.4, ·, 0.9%, ·
55. Cc1cccc(N(C)S(=O)(=O)c2nnc(NC(=O)C3CCCCC3)s2)c1
  ·, -2.2%, ·, 9.7, 0.5, -0.3%, 18.8
